# Tg IFNy HTS – T. gondii growth inhibition with IFN-gamma, primary screen, cell-based; Toxoplasma gondii growth in IFN-gamma-treated host cells; hits give low values; reference of the scale not given here; activity change, negative = inhibition, %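 (about 20 µM by stock and volumes)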; AID 1259416, 2018; 69,000 compounds, 3.8% hits;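 active = below -70%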;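 note: host cells are HeLa cells infected with Toxoplasma gondii; parasite growth read as luciferase light; one replicate is shown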
# Starred values were filed as active, the others as inactive; & = joins results of further samples. The list is partial; count on the stated rates, not on these rows.
no.	compound	Tg IFNy HTS
1	CCc1cc(CN(C)c2ncc(F)c(N3CCOCC3)n2)on1	-3
2	O=C(CSCc1ccccc1)NCCSCc1ccco1	-1
3	CCn1c(=O)c(C(=O)Nc2nccs2)c(O)c2ccccc21	66&-8
4	CN1C(=O)c2cc(NC(=O)c3ccc4c(c3)OCO4)ccc2OC[C@H]2O[C@@H](CC(=O)O)CC[C@@H]21	7
5	CCn1c(C2CCN(C(=O)COCC3CCCCO3)CC2)nn(C)c1=O (stereo unspecified)	6
6	COCC#Cc1ccc([C@@H]2[C@@H](CO)N3C(=O)CN(C(=O)C4CCCCC4)C[C@@H]23)cc1	12
7	COc1ccc(-c2nc(C)c(CCNS(=O)(=O)c3ccc4ccccc4c3)s2)cc1OC	-29
8	Cc1ccsc1-c1nc(CN(C)CC2(CO)CCOCC2)c(C)o1	-3
9	COc1ccc(-c2nccc(CCC(F)(F)F)n2)cn1	-47
10	COc1ccc(-c2nn(-c3ccccc3C)cc2CNCc2csc(C(C)C)n2)cc1F	7
11	CO[C@H]1CN(C)C(=O)c2ccc(NC(=O)Nc3c(C)noc3C)cc2OC[C@H](C)N(CCC(F)(F)F)C[C@@H]1C	39
12	O[C@H](CNC[C@@H](O)[C@H]1CCc2cc(F)ccc2O1)[C@@H]1CCc2cc(F)ccc2O1	-67
13	Cc1c(C)n(C(=O)CSc2ccccn2)c2ccccc12	14
14	COc1ccc(NC(=O)c2ccc3nnc(C4CCN(Cc5ccccc5)C4)n3c2)cc1 (stereo unspecified)	-3
15	COc1ccc(Cl)cc1NC(=O)N1CCC2(CC1)Nc1ccccc1-n1cccc12	218
16	O=C(NCCn1ccnc1)c1cn(CC2CCCNC2)nn1 (stereo unspecified)	-10
17	COc1ccc2c3c([nH]c2c1)[C@@H](CO)N(Cc1ccccc1OC)CC31CN(C(C)=O)C1	-8
18	COc1cc(-c2coc3cc(OCc4ccccc4)c(OC)c(O)c3c2=O)cc(O)c1OC	-86*
19	O=C(NCCc1ccncc1)c1cccc(N2CCCC2)c1	-5
20	COc1ccc(-c2ccccc2-n2ccnc2-c2cnc[nH]2)cc1	27

# New compounds follow:
no.	compound	Tg IFNy HTS
21	COc1ccc(S(=O)(=O)N2CCOCC2)cc1NC(=O)COc1ccccc1	-53
22	COCCNC[C@H]1[C@H](c2ccccc2)[C@H](CO)N1c1nc(C)c(C)s1	-24
23	CCN(CC)C(=O)c1cccnc1	11
24	Cc1ccccc1-c1cc(O)c2c(c1)CN(C(=O)c1ccco1)CCO2	-46
25	CCCc1c(C(=O)OCC)cnn1-c1c(Cl)cc(Cl)cc1Cl	-57
26	COCC(=O)NC1CCc2c(ccc(=O)n2Cc2csc(C)n2)C1 (stereo unspecified)	3
27	CCS(=O)(=O)NCC[C@@H]1CC[C@@H](NC(=O)Nc2cc(Cl)cc(Cl)c2)[C@H](CO)O1	-63
28	CN(C)C(=O)CNC(=O)c1ccn(-c2ccc3ccc(-c4cnn(C)c4)cn23)n1	16
29	Clc1ccc(-c2nnc(N3CCOCC3)o2)cc1	57
30	CCn1ncc(C(=O)NC(C)CCc2ccco2)c1C (stereo unspecified)	-2
31	Cc1nc(N2CCCC2)nc2c1CCN(S(=O)(=O)c1ccc(F)c(F)c1)CC2	6
32	CCS(=O)(=O)Nc1ccc2c(c1)C(=O)N(C)[C@H]1CC[C@@H](CC(=O)N[C@@H]3CCN(Cc4ccccc4)C3)O[C@@H]1CO2	11
33	CC(=O)Nc1ccc(-c2ccc(C(C)N3CCCCC3)cc2)cn1 (stereo unspecified)	-2
34	COc1ccc2c3c(n(C)c2c1)[C@H](CO)N(C(C)=O)CC31CCN(C(=O)c2cnccn2)CC1	81
35	O=C(Nc1cnc2n1CCCC2)C1CC12CCC2 (stereo unspecified)	-1
36	COC1C(O)C(CO)OC1n1cnc2c(NC3CCCCC3)ncnc21 (stereo unspecified)	12
37	CC1O[C@@H](Oc2c(-c3ccc(O)c(O)c3)oc3cc(O)cc(O)c3c2=O)[C@H](O)[C@H](O)[C@H]1O (stereo partly specified)	7
38	Cc1[nH][nH]c(=O)c1CC(=O)NCc1ccc2sccc2c1	6
39	O=C(Cn1c(C(=O)c2ccccc2)nc2ccccc21)c1ccc(Br)cc1	-103*
40	O=C(CCn1nnc2ccccc21)OCC(=O)c1ccc(Cl)c(Cl)c1	-12

# Next structures follow.
no.	compound	Tg IFNy HTS
41	Cc1ccc2[nH]cc(CCNC(=O)CN3C(=O)CSc4cccn4-c4ccccc43)c2c1	77
42	Cc1oc(-c2ccco2)nc1COc1coc(CN2CCOCC2)cc1=O	-2
43	Cc1ccc2c(c1)c(CNC(=O)c1ccc3c(c1)OCO3)nn2C	9
44	O=C1CCC2(CCCO2)CCN1Cc1cccc2cccnc12 (stereo unspecified)	1
45	COc1ccc(OC(=O)c2cc(S(=O)(=O)N(C)Cc3ccccc3)cs2)cc1	-66
46	O=C1N(c2ccc3c(c2)OCO3)CC12CCN(S(=O)(=O)c1ccccc1)CC2	8
47	CCCc1cnc(-c2ccc(C(C)N3CCOCC3)cc2)nc1 (stereo unspecified)	0
48	CC(=O)[C@@]1(O)CC[C@H]2[C@@H]3CCC4=CC(=O)CC[C@]4(C)[C@H]3[C@@H](O)C[C@@]21C	-11
49	O=C(O)c1ccc(C2CCN(C(=O)CC3CCS(=O)(=O)CC3)C2)cc1 (stereo unspecified)	40
50	OCCOCc1ncn2c1CN(Cc1nccs1)CCC2	-1
51	Cc1oc(-c2ccccc2)nc1CN(c1ccccc1)S(=O)(=O)c1cccs1	3
52	Nc1nc(N)c([NH2+][O-])c(OCC2CCCCC2)n1	4
53	C/C=C/c1ccc(C2[C@H]3CNC[C@@H]2N3C(=O)Nc2ccccc2Cl)cc1 (stereo partly specified)	44&-1
54	COc1ccc(-c2nc(C)c(CCNC(=O)C(=O)Nc3ccc(Cl)cc3)s2)cc1OC	-49
55	CCN1CCC2(CC1)OC(=O)C(C)=C2C(=O)NCCCN1CCC(Cc2ccccc2)CC1	15
56	Cc1noc(C)c1S(=O)(=O)Nc1ccc2c(c1)C(=O)N([C@@H](C)CO)C[C@H](C)[C@@H](CN(C)C(=O)Nc1cccc3ccccc13)OCCCC[C@H](C)O2	141
57	c1ccc2oc(CN3CCCn4cncc4C3)cc2c1	-25
58	O=C(NCCO)C1CCCN(C2CCN(CCc3ccccc3)CC2)C1 (stereo unspecified)	-1
59	Fc1cccc(CN2CC3CN(Cc4cccs4)CC3C2)c1 (stereo unspecified)	-34
60	O=C1c2ccccc2C(=O)N1OCc1ccccc1	205

# Continuation:
no.	compound	Tg IFNy HTS
61	C[C@H](CO)N1C[C@H](C)[C@H](CN(C)C(=O)NC2CCCC2)Oc2cc(-c3cncnc3)ccc2S1(=O)=O	44
62	CCc1nnc(CN2C[C@H]3OC(=O)N(CCCN4CCOCC4)[C@H]3C2)o1	8
63	O=C(CN1CCCC1Cn1cccn1)Nc1nc(-c2ccc(F)cc2)cs1 (stereo unspecified)	-77*
64	Cc1cc(C)c(C(=O)N2CCc3c(cnc(C)c3CNC(=O)/C=C/c3ccccc3)C2)[nH]1	13
65	Cc1cc(C)n(-c2nc(-c3ccccc3)cc(-c3ccccc3)n2)n1	-23
66	COC(=O)C(Cc1cnc[nH]1)NC(=O)c1ccc2nc(C)[nH]c2c1 (stereo unspecified)	6
67	COc1ccc(-c2ccc3c(c2)[C@@H]2[C@@H](CCN2C(=O)Nc2ccccc2OC)[C@@H](CO)N3C)cc1	-72*
68	Cc1nccn1-c1ccc(-c2ccc(C(C)N3CCOCC3)cc2)nn1 (stereo unspecified)	35
69	COc1ccc2c3c(n(C)c2c1)[C@@H](CO)N(C)CC31CCN(C(=O)c2ccc3c(c2)OCO3)CC1	62
70	CCCc1ccc(S(=O)(=O)N2CCc3nc(-c4ccc(OC)cc4)sc3C2)cc1	16
71	O=C1CC(Sc2ccc(Cl)cc2)C(=O)N1c1cc(F)c(Br)cc1F (stereo unspecified)	-85*
72	Cc1ccc(=O)n(CC(=O)N2CCC(c3ccc(C(=O)NC4CCCC4)cn3)CC2)n1	-3
73	CC(C)CC#Cc1ccc([C@@H]2[C@@H](CO)N3C(=O)CN(C(=O)c4cccc(F)c4)C[C@H]23)cc1	-49
74	O=C(Cc1ccc(F)cc1)NCCNC(=O)c1nc(-c2cccs2)no1	8
75	CCOc1ccccc1NC(=O)c1c(O)c2cccnc2n(-c2ccccc2)c1=O	61
76	Cc1ccnc(-n2cccc2CN2CCCN(C(=O)C3CCC3)CC2)c1	-10
77	O=C(c1ccn[nH]1)N1CCC2(CC(=O)N(c3ccc(F)cc3)C2)C1 (stereo unspecified)	-92*
78	COc1ccc(O)c(C2=Nc3ccccc3N=C(c3ccccc3)C2)c1	167
79	COc1cccc(S(=O)(=O)N[C@H]2CC[C@@H](CC(=O)NC3Cc4ccccc4C3)O[C@H]2CO)c1	5
80	Cc1cc(C)c(S(=O)(=O)N2CCc3nc(-c4ccccc4)sc3C2)c(C)c1	-6

# Along the list, as entered above.
# Nos. 71–75 in Tg IFNy HTS: -85*, -3, -49, 8, 61

# An excerpt of these results, field by field:
70: CCCc1ccc(S(=O)(=O)N2CCc3nc(-c4ccc(OC)cc4)sc3C2)cc1
- Tg IFNy HTS: 16
71: O=C1CC(Sc2ccc(Cl)cc2)C(=O)N1c1cc(F)c(Br)cc1F (stereo unspecified)
- Tg IFNy HTS: -85*
72: Cc1ccc(=O)n(CC(=O)N2CCC(c3ccc(C(=O)NC4CCCC4)cn3)CC2)n1
- Tg IFNy HTS: -3
73: CC(C)CC#Cc1ccc([C@@H]2[C@@H](CO)N3C(=O)CN(C(=O)c4cccc(F)c4)C[C@H]23)cc1
- Tg IFNy HTS: -49

# Next section:
no.	compound	Tg IFNy HTS
81	CC(C)n1cnc2c(NCc3ccccc3)nc(NCCCO)nc21	-5
82	CCc1nn(C)c(Cl)c1CN1CC2(CCNCC2)CC1C(=O)O (stereo unspecified)	8
83	O=C(CC1c2ccccc2Oc2ccccc21)N1CCC(c2ccncc2)CC1	-28
84	CC(C)NC(=O)c1cccnc1C1CCCN(C(=O)c2cc3c(s2)CCCCC3)C1 (stereo unspecified)	-37
85	CCc1nc(=O)c2ccccc2n1C1=CCN(C(=O)C2C3C=CC4(CN(C)C(=O)C24)O3)CC1 (stereo unspecified)	-4
86	CNCCCCOc1ccccc1Cc1ccccc1	0&9
87	O=S(=O)(O)c1cc(I)c(O)c2ncccc12	10&8
88	CC1CCCCN1Cc1cccc(N)c1 (stereo unspecified)	1
89	O=C(Cc1cccc2ccccc12)N1CCN(S(=O)(=O)c2cc3c4c(c2)CCN4C(=O)CC3)CC1	-21
90	Cc1ccc(CN2CCC3OCCCC3(COCc3ccncc3)C2)o1 (stereo unspecified)	-42
91	COc1cccc(Nc2nc(-c3nnc(-c4ccccc4)o3)nc3ccccc23)c1	54
92	Cc1nc(-c2ccc(F)cc2)nc2c1CCN(C(=O)C(C)C)CC2	-3
93	Cc1oc(-c2ccc(C(=O)N3CCN(c4ccccc4)CC3)cc2)nc1CN1CCC(C)CC1	-23
94	O=C(c1cccnc1)N1CCCC1c1nnn2cc(Nc3ccccc3)ccc12 (stereo unspecified)	-6
95	O=C1CC2(CCN(C(=O)c3ccno3)CC2)CN1Cc1cccc(F)c1	-1
96	Cc1ncnc2c1CCN(C(=O)Cc1ccccn1)CC2	22
97	O=C(c1ccc(-n2nc(C(F)(F)F)c3c2CCCC3)cc1)N1CCN(c2cccc(Cl)c2)CC1	-17
98	O=C1NC(C(=O)N2CCC(c3cc(Cc4ccccc4)[nH]n3)CC2)CO1 (stereo unspecified)	3
99	Cn1ncc2c3ccccc3n(CC(=O)NCCCN3CCCC3=O)c2c1=O	9
100	Cc1[nH]cnc1-c1nccn1CCN1CCCOC1=O	2

# Three compounds out of the list, ordered by heavy-atom count, smallest number first.
no.	compound	Tg IFNy HTS
86	CNCCCCOc1ccccc1Cc1ccccc1	0&9
82	CCc1nn(C)c(Cl)c1CN1CC2(CCNCC2)CC1C(=O)O (stereo unspecified)	8
99	Cn1ncc2c3ccccc3n(CC(=O)NCCCN3CCCC3=O)c2c1=O	9

# (next part)
no.	compound	Tg IFNy HTS
101	CC(C)(C)[S@](=O)N1Cc2cc(C(=O)N3CCOCC3)nc(-c3cccc(-c4ccccc4F)c3)c2[C@@H]1CCO	21
102	COc1ccc(NC(=O)N2CCC3(CC2)NC(=O)c2ccc(Cl)cc2N3C)cc1OC	188
103	O=C(N1CCOCC1)[C@@]12CCCN(Cc3cccs3)C[C@@H]1CN(c1ncccn1)C2	0
104	CN(C)CCN1CCC2(CC1)CC(NCc1cccs1)c1ccccc12 (stereo unspecified)	-35
105	COc1cc(=O)n2c(c1C(=O)Nc1cnc3n1CCCC3)CCNCC2	1
106	CCc1cnc(N2C[C@H]3C[C@H](C(=O)NCc4cccnc4)[C@@H](C2)O3)nc1	-29
107	COc1cccc(CNC(=O)c2c(O)c3cccnc3n(-c3ccc(F)cc3)c2=O)c1	163
108	Cc1noc(C)c1S(=O)(=O)N(C)C[C@@H]1OCc2ccccc2-c2ccccc2C(=O)N([C@@H](C)CO)C[C@@H]1C	32
109	Cc1cc(C)n(-c2cc(Cl)ccc2-c2cncc(C(=O)N3CCCC3)n2)n1	-3
110	CC1=CC[C@@H]2CN(C(=O)c3cc(Cn4ccc5ccccc54)[nH]n3)C[C@@H]2C1	-9
111	Cc1ccccc1-c1nc(CN2CCN(C(=O)Nc3ccccc3C(F)(F)F)CC2)c(C)o1	0
112	CCCN1CCN(CCCNC(=O)C2=C(C)C(=O)OC23CCN(CC)CC3)CC1	69
113	O=C(/C=C/c1ccccc1)c1ccccc1	28
114	c1cc(-c2cc(-c3nc4c5c(ncn4n3)CCC5)[nH]n2)cs1	13
115	COc1cccc(CN2CCN(C(=O)C(C)(C)C)[C@@H](C)C2)c1	38
116	C/C=C/c1ccc([C@@H]2[C@@H](CO)N(C(C)=O)[C@H]2CNC(=O)c2ccccc2)cc1	29
117	Cc1nc2ccc(NS(=O)(=O)c3ccc4c(c3)n(C)c(=O)c(=O)n4C)cc2nc1C	-36
118	Cc1ccc(CN2Cc3ccnn3CC(COc3cccnc3)C2)o1 (stereo unspecified)	44
119	CCCN(C)C[C@@H]1Oc2cc(/C=C/c3ccccc3)ccc2S(=O)(=O)N([C@H](C)CO)C[C@@H]1C	9
120	O=C(C[C@H]1C=C[C@H](NC(=O)Nc2cccc(F)c2)[C@H](CO)O1)NCC1CCCCC1	31

# From PubChem BioAssay
